Compound activity as filed in PubChem BioAssay.
TRPV1 PAM: potentiators of human vanilloid receptor 1 (TRPV1) | 320,000 compounds, 0.02% hits | TRPV1-expressing cells, Fluo-8 calcium influx, capsaicin EC20 potentiation; host cell line not named in the record; control for the full effect not named in the record | Q8NER1 | potentiation, % at 8.33 µM | AID 540277; active means potentiation above 80%; inconclusive means 30% to 80%; inactive means below 30%; further: 0% is about no effect
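TRPV1-expressing cells were cultured overnight at 35.5C and loaded with Fluo-8 calcium dye for 40 to 90 min at room temperature. After a 10 s baseline, compound was added and calcium influx was read kinetically for 3 min (ex 480/em 520 nm).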
Sfp inh: blocks B. subtilis Sfp PPTase activity; Potency, µM, without a hit: max response, negative = inhibition, hits mostly inhibitors; 310,000 compounds, 3.5% hits; Biochemical Sfp PPTase activity, qHTS; Q9F4F7; active means well fitted inhibition curve with a large enough effect; inconclusive means small, poorly fitted or top-dose-only effect, or another doubt; inactive means no such curve, though single readings can be large or run the other way;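 further: the enzyme is Sfp with the accession as filed and its product quenches rhodamine fluorescence; potency means the concentration at half of the fitted maximal effect; 0% = enzyme reaction without inhibitor and -100% = no enzyme wells; top concentration of the series not given in the record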
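Sfp 15 nM + cpd, 15 min RT; start w/ rhodamine-CoA 5 uM, BHQ-2-YbbR 12.5 uM (final); 50 mM Hepes pH 7.6, 10 mM MgCl2, 0.01% NP-40, 0.01% BSA; read 525/598 nm at 0 and 30 min.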
TRPML1 blocker: inhibitors of human TRPML1 channel; Q9GZU1; 390,000 compounds, 0.02% hits; TRPML1-inducible cells, Ca2+ dye fluorescence, FDSS; hits give low values; inhibition of EC80 agonist-evoked calcium signal; activity change, negative = inhibition, % (concentration not given with the values); in the data active means activity change below about -50%; inconclusive means about -30% to -50%; inactive means above about -30%;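 further: stimulus is agonist 54-4 at its EC80 concentration; on the % scale 0 is the no-effect control and ±100 the full control effect; the text of the record puts the active cut at -80%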
Target sequence (Q9GZU1 whole entry, looked up): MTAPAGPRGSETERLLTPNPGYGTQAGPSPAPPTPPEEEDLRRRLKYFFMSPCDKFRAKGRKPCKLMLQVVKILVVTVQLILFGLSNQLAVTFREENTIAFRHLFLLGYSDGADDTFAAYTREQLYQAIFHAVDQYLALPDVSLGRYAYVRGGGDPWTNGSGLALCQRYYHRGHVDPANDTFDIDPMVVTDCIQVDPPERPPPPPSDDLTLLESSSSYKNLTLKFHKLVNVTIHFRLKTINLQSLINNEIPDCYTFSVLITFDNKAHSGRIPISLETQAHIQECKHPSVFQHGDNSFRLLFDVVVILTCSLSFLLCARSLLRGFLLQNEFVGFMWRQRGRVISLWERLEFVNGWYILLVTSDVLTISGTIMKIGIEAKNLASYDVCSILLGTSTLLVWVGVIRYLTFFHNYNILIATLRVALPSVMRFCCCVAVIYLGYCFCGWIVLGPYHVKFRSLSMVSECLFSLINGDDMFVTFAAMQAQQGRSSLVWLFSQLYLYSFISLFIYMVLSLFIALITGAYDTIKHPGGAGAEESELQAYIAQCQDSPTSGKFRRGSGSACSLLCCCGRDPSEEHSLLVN
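Calcium fluorescence in TRPML1-DL cells induced overnight with Tet: a 110 s read after compound pin addition, then a 110 s antagonist read after challenge with 54-4 at 4 uM final (EC80).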
ClpP mod: qHTS Assay for Activators of ClpP | ATP-dependent Clp protease proteolytic subunit (Bacillus subtilis (strain 168)), P80244 | 340,000 compounds, 1.9% hits | purified B. subtilis ClpP, FRET peptide cleavage, 20 min | Potency, µM (highest dose often 57.5 µM), for the others: at the top dose activity change, negative = active | AID 651965, 2013; active = well fitted falling curve with a large enough effect; inconclusive = small, poorly fitted or top-dose-only effect; inactive = no such curve, though single readings can be large or run the other way; further: potency means the concentration at half of the fitted maximal effect; the source files actives as falling curves though it sought activators and does not explain the sign; nearly all actives have a fitted effect of over 65% in size; many hits overshoot -100%
Target sequence (P80244 whole entry, looked up): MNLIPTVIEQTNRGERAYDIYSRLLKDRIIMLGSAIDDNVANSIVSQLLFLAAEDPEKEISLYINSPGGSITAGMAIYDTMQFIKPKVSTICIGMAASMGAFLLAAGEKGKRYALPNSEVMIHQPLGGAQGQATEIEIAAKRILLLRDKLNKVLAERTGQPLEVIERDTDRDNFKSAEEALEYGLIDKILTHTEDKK
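ClpP 10 microg/mL final, pH 8 Tris/KCl buffer with BSA, glycerol, Tween-20; compound pinned in; FRET-FV substrate; RT 20 min; Ex320/Em430; ΔFRET vs ADEP 5.8 microM, DMSO, no enzyme.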
TRPML1 ag: human mucolipin-1 channel agonism; Q9GZU1; TRPML1-expressing cells, Ca2+ dye fluorescence, FDSS; host cell line not named in the record; reference of the full effect not given here; activation, % (test concentration not listed); 410,000 compounds, 0.12% hits; AID 624414; in the data active = activation above about 50%; inconclusive = about 30% to 50%; inactive = below about 30%; further: 0% is about no effect; the text of the record puts the active cut at 80%
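Calcium fluorescence on an FDSS kinetic reader gave the read-out. Tet-induced TRPML1-DL cells were plated overnight, dye-loaded (Ca8 with quencher, 45-90 min, room temperature, dark), then read 110 s after compound addition, and again 110 s after 4uM final 54-4 (EC80).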
PINK1 expr mod: PINK1 expression modulation. PINK1 immunofluorescence, high-content cytometry, 24 h. AID 624263. Potency, µM (series often up to 76.6 µM), without a hit: top-dose activation (PINK1 increase), actives largely listed as activators. 410,000 compounds, 0.2% hits; active = well fitted activation curve with a large enough effect; inconclusive = small, poorly fitted or top-dose-only effect; inactive = flat fitted curve, though single readings scatter; cell line not stated here;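 further: potency means the concentration at half of the fitted maximal effect; % of control where 0% means no effect; nearly all actives have a fitted effect of over 65% in size; a mitochondrial uncoupler was the plate control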
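Stable cell line, 250 cells/well, 12 h attachment; compounds pinned at 5 concentrations, 24 h; CCCP control. Fixed with nuclear dye, primary antibodies 12 h at 10 degrees C, secondary plus cell stain; laser-scanning cytometer read.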
Menin MLL FP FL: displaces fluorescein MLL peptide from human menin; Fluorescence polarization, fluorescein-MLL peptide displacement from menin; AID 1766; 290,000 tested, under 10 active; FP activity change, % at 61.4 µM; inconclusive = falling polarisation curve, or a change in total fluorescence; inactive = total fluorescence flat and polarisation flat or rising; no compound was filed as active; the % refers to the polarisation; negative = inhibition;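 further: % of control where 0% means no effect; inhibitors lower the polarisation; unlabelled MLL peptide was the positive control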
Starred values were filed as active, the others as inactive; ? = inconclusive; / = no result given; & = joins results of further samples; [ ] = remark or other dose.

Value order: TRPV1 PAM, Sfp inh, TRPML1 blocker, ClpP mod, TRPML1 ag, PINK1 expr mod, Menin MLL FP FL
CCc1nnc(NC(=O)[C@@H](NS(=O)(=O)c2ccc3c(c2)OCCO3)C(C)C)s1
  /, /, 4, /, -0.5, -0.8%, /
O=C(Nc1ccc(S(=O)(=O)N2CCOCC2)cc1)c1ccc2c(c1)OCO2
  -18, 3%, 8, /, -0.3, 3.1%, 8.4
CCC(=O)N1CCC1(C)C(=O)Nc1ccc2c(c1)CCN2C(C)=O (configuration not stated)
  /, /, /, 0.0%, -0.4, 1.4%, /
O=c1cc[nH]c2ccc(OC(F)(F)F)cc12
  5, 6%, -6, /, 0.0, -0.4%, -3.1
CCN1C(C(=O)c2ccccc2)=C(OC(=O)c2ccc(OC)cc2)c2ccccc2S1(=O)=O
  /, /, 6, 1.5%, 0.0, -0.7%, /
CCn1c(-c2cc(OC)ccc2OC)csc1=Nc1c(C)n(C)n(-c2ccccc2)c1=O
  5, -8%, 6, -0.9%, 1.0, -1.5%, 3.7
Cc1ccc(C2CC(C(F)(F)F)n3nc(C(=O)NCC4CCCO4)cc3N2)cc1 (configuration not stated)
  3, 4%, /, /, /, /, 1.4
Cc1ccc(-n2c(=O)c3sccc3n(CC(=O)NCc3ccco3)c2=O)cc1F
  /, -20%, 53, 0.9%, 1.7, 2.1%, 13
O=C(c1ccccc1)N1CCN(Cc2cccc(Oc3ccccc3)c2)CC1
  -12, -14%, 30, -0.4%, 6.5, -1.8%, -1.6
COc1cc2c(cc1OC)CN(c1ccc([N+](=O)[O-])cc1Cl)CC2
  -3, -50%, 63, -13%, 1.6, -1.3%, -1.0
Nc1nnc(Cc2ccc(Cl)cc2Cl)s1
  2, 5%, 8, 1.3%, -0.7, -0.1%, -1.6
CCOc1ccc(-c2c(C(=O)N/N=C/c3ccncc3)nnn2-c2nonc2N)cc1
  1, 6%, -6, -8.7%, -0.4, 20%, 0.2
O=C1[C@H]2CCCC[C@H]2C(=O)N1CCCCN1CCN(c2nsc3ccccc23)CC1
  /, -27%, -3, -15%, -0.3, -0.4%, 3.8
CN(C)C(=O)c1ccc(NC(=O)COC(=O)c2cc3c(s2)CCCCC3)cc1
  -7, /, -6, -0.5%, 1.0, 3.0%, /
COC(=O)CNC(=O)C(C)NC(=O)CNC(=O)OCc1ccccc1 (configuration not stated)
  25, 11%, 19, 1.7%, -0.6, 0.8%, 4.0
O=C(CCC1CCCC1)N1CCN(C(=O)C2CC2)CC1
  -1, 9%, -5, 0.7%, -0.5, -0.7%, 6.0
CC(C)(C)NC(=S)Nc1ccc(Br)cc1
  18, -10%, 7, -0.4%, 0.0, 3.4%, -0.2
O=C(NC1(O)C(=O)c2ccccc2C1=O)c1ccc(C(F)(F)F)cc1
  -2, -7%, -23, -2.1%, 1.1, 12%, 0.7
CCN(c1ccccc1)S(=O)(=O)c1ccc(Cl)c(C(=O)OCC(=O)c2[nH]c(C)c(C(C)=O)c2C)c1
  2, 4%, 16, -3.2%, 2.9, 4.9%, 4.7
COCCNC(=S)N1CCc2cc(OC)c(OC)cc2C1COc1ccc(F)cc1 (configuration not stated)
  -8, -8%, 7, -0.1%, -0.2, 5.8%, 2.1
COc1ccc(-c2noc(CNC(=O)c3ccc(OC)cc3OC)n2)cc1
  /, /, 29, -1.3%, 1.8, 1.7%, /
COc1ccc(OC)c(-c2nc(C(=O)NCC3CCCO3)cc3c2[nH]c2ccccc23)c1 (configuration not stated)
  18, -13%, /, 4.7%, /, -0.6%, 1.1
CC12COC3(C(=O)Nc4ccc(F)cc4)CC1CCC32C (configuration not stated)
  5, 23%, -13, -0.9%, 2.2, 3.2%, -0.8
Cc1ccc(NC(=O)c2ccc(CN3CC(=O)N4CCCCC4C3=O)cc2)c(C)c1 (configuration not stated)
  4, 13%, 16&9, 0.7%&2.2%, -0.2&1.7, -0.5%&1.2%, -4.8
COc1cc(-c2nc3ccc(C)cn3c2Nc2ccc(Cl)cc2)ccc1O
  /, /, 10, 3.9%, -0.1, 0.4%, /
COc1ccc(CCNC(=O)CCCn2ncn3c(cc4occc43)c2=O)c(OC)c1
  3, 33%[activator], -11, -1.7%, -0.5, 0.9%, 2.2
Cn1cnnc1SCCC(=O)Nc1ccc(Cl)cc1
  6, 7%, 17, -0.2%, -0.8, -2.3%[38.3 µM], -1.4
COc1ccc(CNC(=O)C(C)N2C(=O)COc3ccc(C)cc32)c(OC)c1 (configuration not stated)
  -11, 23%, 5, /, 0.6, -1.7%, 2.6
O=C(Cn1nc(-c2ccc(Cl)cc2)c2ccccc2c1=O)NN1CCOCC1
  -6, 15%, 4, -0.2%, 0.2, -1.5%, 2.9
CC/C(=N\NC(=O)c1c(-c2ccccc2)noc1C)c1ccc(C)o1
  6, 7%, 7, 0.5%, -0.1, 3.7%, -3.6
CC(C)C(NC(=O)c1ccc(Cl)cc1)C(=O)O (configuration not stated)
  20, 16%, -7, 0.1%, -0.3, 2.0%, 0.9
CCOc1cccc2sc(N3CCN(C(=O)c4ccc5c(c4)CCCC5)CC3)nc12
  /, /, -6, 0.7%, 3.0, -1.6%, /
CCCCC(=O)NCCNc1nc2c(c(=O)n(C)c(=O)n2C)n1Cc1ccccc1
  0, -7%, -12, 0.2%, 2.1, 0.9%, -1.3
COc1cc(C(=O)Nc2nnc(C)s2)cc(OC)c1OC
  12, 11%, 15, -6.0%, 0.0, 6.7%, 0.3
O=C(O)c1[nH]c2ccccc2c1NS(=O)(=O)c1ccc(F)cc1
  10, 7%, -9, -0.4%, 0.4, 1.9%, 0.1
CCCCn1nnnc1C(c1cccc(OC)c1OC)N1CCN(C/C=C/c2ccccc2)CC1 (configuration not stated)
  /, /, -17, 2.0%, 1.5, ?, /
CCN(CC)c1ccc(C(=O)NNC(=O)C2CCN(c3ncnc4sc(C)c(C)c34)CC2)cc1
  /, /, -3, -23%, 0.4, 1.9%, /
CCOC(=O)CSc1nc2ccc(Nc3nc(N4CCOCC4)nc(N4CCOCC4)n3)cc2s1
  19, -13%, 13, -2.0%, 1.4, 4.3%[38.3 µM], 10
CCCCCCCCNS(=O)(=O)CCNCCc1ccccc1
  /, /, -9, 0.5%, -0.5, 6.9%, /
COCCn1c(=O)c(-c2ccccc2)nc2cnc(OC)nc21
  /, 1%, /, /, /, 0.6%, -2.8
CC12CCC(C(=O)N(CCCN3CCN(Cc4ccccc4)CC3)C1=O)C2(C)C (configuration not stated)
  -12, 11%, -1, /, 0.4, -2.0%, 0.9
CCOC(=O)c1ccc(Nc2ccc([N+](=O)[O-])cn2)cc1
  8, 15%, -16, -3.9%, 0.0, 1.5%, 3.0
CC1=C(C)CC(C(=O)NCc2ccccn2)C(C(=O)O)C1 (configuration not stated)
  -11, -13%, 52, /, 0.6, 1.3%, -2.1
O=C(COc1ccccc1)N=C1SC2CS(=O)(=O)CC2N1CCc1ccccc1 (configuration not stated)
  0, 15%, -8, 2.1%, -1.1, 1.0%, 4.3
CN(C)c1cccc(C(=O)NCc2ccc3c(c2)OCO3)c1
  -22, 2%, 4, /, 1.3, -2.0%, -3.6

Part of the list above, limited to TRPML1 ag, PINK1 expr mod and ClpP mod:
smiles	TRPML1 ag	PINK1 expr mod	ClpP mod
CCN(CC)c1ccc(C(=O)NNC(=O)C2CCN(c3ncnc4sc(C)c(C)c34)CC2)cc1	0.4	1.9%	-23%
CCCCCCCCNS(=O)(=O)CCNCCc1ccccc1	-0.5	6.9%	0.5%
COc1cc(C(=O)Nc2nnc(C)s2)cc(OC)c1OC	0.0	6.7%	-6.0%
CCOC(=O)c1ccc(Nc2ccc([N+](=O)[O-])cn2)cc1	0.0	1.5%	-3.9%
CN(C)c1cccc(C(=O)NCc2ccc3c(c2)OCO3)c1	1.3	-2.0%	/

Following part:
Value order: TRPV1 PAM, Sfp inh, TRPML1 blocker, ClpP mod, TRPML1 ag, PINK1 expr mod, Menin MLL FP FL
CCOC(=O)C(C)N1N=C(/C=C/c2ccc(C)cc2)CCC1=O (configuration not stated)
  5, -11%, 25, -4.1%, 1.2, -3.2%[38.3 µM], -0.6
O=C(NC(=S)Nc1ccc(CN2CCOCC2)cc1)c1cccc(F)c1
  8, -9%, 11, 0.6%, 0.2, -0.9%, -2.4
CSc1cc(C)nc(N(C)C(C)=O)n1
  0, 2%, 22, -3.6%, 1.3, 20%[38.3 µM], 6.3
CC(C)Oc1ccc(C(=O)NC2CCS(=O)(=O)C2)cc1 (configuration not stated)
  18, 2%, -2, -0.6%, -1.1, 0.7%, 5.3
NNc1nnnc2c1sc1nc(N3CCOCC3)c3c(c12)CCCC3
  ?, 9%, -5, -0.4%, -0.5, 1.1%, 2.9
O=C(NCCO)/C(=C\c1ccc([N+](=O)[O-])o1)NC(=O)c1ccccc1
  4, 20%, -8, /, -0.1, -1.2%, -0.1
COc1ccc(N2CCCCn3c2nc2c3c(=O)n(C)c(=O)n2C)cc1
  0, 11%, 12, -3.0%, 0.2, -1.1%, 5.8
CC(C)(C)S(=O)(=O)N1Cc2cc(=O)n(Cc3ccccc3)c(CCO)c2[C@H]1CCO
  /, /, 2, ?, -0.3, 0.0%, /
Cc1cc(NC(=O)CCC(=O)N(c2ccccc2)C(C(=O)NC2CCCC2)c2ccccc2F)no1 (configuration not stated)
  6, 7%, 19, /, 2.9, -1.1%, 2.9
COc1ccc(/C=N/Nc2ccc(C(F)(F)F)cc2[N+](=O)[O-])cc1O
  3, -3%, -14, 0.0%, -0.8, 6.4%, -1.4
COC(=O)C1=C(C)N(C)C(=S)NC1c1c(OC)ccc2ccccc12 (configuration not stated)
  ?, 1%, 4, -0.4%, -1.0, -0.1%, -1.6
CCN1/C(=C/c2cccc[n+]2C)Sc2ccc(OC)cc21
  15, -8%, 0, 0.1%, 2.2, 25µM*, ?
Cc1ccc(CNC(=O)CN2CCC(C(N)=O)CC2)cc1
  -2, 11%, -4, 2.6%, 0.1, 0.3%, -2.0
Cc1ccc(S(=O)(=O)NC[C@H]2O[C@@H](n3ccc(N)nc3=O)[C@H](O)[C@@H]2O)s1
  /, /, -7, 0.4%, -0.2, 1.7%, /
